# Source: PubChem BioAssay (National Center for Advancing Translational Sciences (NCATS))
# TRPV1 potentiator: human TRPV1 potentiation | 320,000 tested, 0.02% active | potentiation, % at 8.33 µM | TRPV1-expressing cells, Fluo-8 calcium influx, capsaicin EC20 potentiation; host cell line not named in the record; control for the full effect not named in the record | Q8NER1; active means potentiation above 80%; inconclusive means 30% to 80%; inactive means below 30%; also: 0% is about no effect
#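 Fluo-8 calcium influx in TRPV1-expressing cells, kinetic read (ex 480/em 520 nm). Compound added and read 3 min for agonist activity, followed by capsaicin at EC20 final and 2 min further read for enhancement.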
# TRPML1 inh: human mucolipin-1 channel inhibition | activity change, negative = inhibition, % (concentration not given with the values) | AID 624415 | 390,000 tested, 0.02% active | TRPML1-inducible cells, Ca2+ dye fluorescence, FDSS; active compounds read low; inhibition of EC80 agonist-evoked calcium signal; in the data active means activity change below about -50%; inconclusive means about -30% to -50%; inactive means above about -30%;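 also: stimulus is agonist 54-4 at its EC80 concentration; % is scaled to controls: 0 for no effect and ±100 for the full control effect; the text of the record puts the active cut at -80%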
# Target sequence (Q9GZU1 whole entry, looked up): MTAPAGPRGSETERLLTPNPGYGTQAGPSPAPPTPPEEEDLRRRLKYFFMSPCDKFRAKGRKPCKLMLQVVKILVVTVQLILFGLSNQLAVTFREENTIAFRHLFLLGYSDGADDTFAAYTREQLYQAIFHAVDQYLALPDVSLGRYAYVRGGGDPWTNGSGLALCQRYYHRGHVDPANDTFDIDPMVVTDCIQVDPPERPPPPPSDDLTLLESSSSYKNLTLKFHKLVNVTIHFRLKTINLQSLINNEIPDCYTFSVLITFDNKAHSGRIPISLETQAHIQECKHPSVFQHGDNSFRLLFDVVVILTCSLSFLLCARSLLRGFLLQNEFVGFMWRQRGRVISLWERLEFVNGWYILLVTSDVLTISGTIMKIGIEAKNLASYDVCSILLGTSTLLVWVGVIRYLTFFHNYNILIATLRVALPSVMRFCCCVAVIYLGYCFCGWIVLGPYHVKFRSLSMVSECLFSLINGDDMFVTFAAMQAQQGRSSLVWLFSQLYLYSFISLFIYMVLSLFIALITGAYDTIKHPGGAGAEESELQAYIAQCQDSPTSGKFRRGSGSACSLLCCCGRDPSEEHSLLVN
#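 TRPML1-DL cells, Tet-induced overnight (~16 h, 37 °C) at 1,500 cells/well, were loaded with Ca8 no-wash dye plus quencher for 45-90 min at room temperature. Compounds were pinned during FDSS kinetic reading; agonist 54-4 at EC80 (4 uM final) then added.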
# ClpP mod: qHTS Assay for Activators of ClpP | purified B. subtilis ClpP, FRET peptide cleavage, 20 min | AID 651965, 2013 | ATP-dependent Clp protease proteolytic subunit (Bacillus subtilis (strain 168)), P80244 | Potency, µM (titrated, usually from 57.5 µM), inactives show top-dose activity change, negative = active | 340,000 tested, 1.9% active; active = well fitted falling curve with a large enough effect; inconclusive = small, poorly fitted or top-dose-only effect; inactive = no such curve, though single readings can be large or run the other way; also: potency is read from the fitted curve at half-maximal effect; the source files actives as falling curves though it sought activators and does not explain the sign; nearly all actives have a fitted effect of over 65% in size; many hits overshoot -100%
# Target sequence (P80244 whole entry, looked up): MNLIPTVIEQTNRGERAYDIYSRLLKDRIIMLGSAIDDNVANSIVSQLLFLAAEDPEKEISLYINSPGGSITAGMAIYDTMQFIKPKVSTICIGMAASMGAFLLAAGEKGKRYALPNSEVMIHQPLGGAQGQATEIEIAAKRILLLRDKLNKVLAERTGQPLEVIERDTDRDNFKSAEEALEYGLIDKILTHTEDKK
#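 FRET quenching reversal measured ClpP activation: 10 microg/mL B. subtilis ClpP at pH 8 with the FRET-FV decapeptide, read at 430 nm after 320 nm excitation. The 20-min minus 0-min signal was scaled between DMSO/no-enzyme wells and ADEP (5.8 microM final).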
# TRPML1 agonist: human mucolipin-1 channel agonism | 410,000 tested, 0.12% active | activation, % (no concentration beside the values) | TRPML1-expressing cells, Ca2+ dye fluorescence, FDSS; host cell line not named in the record; reference of the full effect not given here | AID 624414; in the data active = activation above about 50%; inconclusive = about 30% to 50%; inactive = below about 30%; also: 0% is about no effect; the text of the record puts the active cut at 80%
#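 TRPML1-DL cells, Tet-induced overnight (~16 h, 37 degrees C), loaded 45-90 min at room temperature with Ca8 no-wash calcium dye plus quencher. FDSS fluorescence: 10 s baseline, compound pin-transfer, 110 s agonist read, then EC80 54-4 (4uM final) and 110 s antagonist read.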
# Sfp PPTase inh: Sfp phosphopantetheinyl transferase inhibition | Biochemical Sfp PPTase activity, qHTS | Potency, µM, without a hit: max response, negative = inhibition, actives largely listed as inhibitors | Q9F4F7 | 310,000 tested, 3.5% active; active = well fitted inhibition curve with a large enough effect; inconclusive = small, poorly fitted or top-dose-only effect, or another doubt; inactive = no such curve, though single readings can be large or run the other way;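 also: the enzyme is Sfp with the accession as filed and its product quenches rhodamine fluorescence; potency is read from the fitted curve at half-maximal effect; 0% = enzyme reaction without inhibitor and -100% = no enzyme wells; top concentration of the series not given in the record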
#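 Compounds were incubated with enzyme (final 15 nM) for 15 min at room temperature before substrate addition started the reaction. Fluorescence at 525 nm excitation, 598 nm emission was recorded immediately and after 30 minutes.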
# PINK1 expr mod: changes PINK1 expression; PINK1 immunofluorescence, high-content cytometry, 24 h; Potency, µM (series often up to 76.6 µM), for inactives: top-dose activation (PINK1 increase), actives largely listed as activators; 410,000 tested, 0.2% active; active = well fitted activation curve with a large enough effect; inconclusive = small, poorly fitted or top-dose-only effect; inactive = flat fitted curve, though single readings scatter; cell line not stated here;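 also: potency is read from the fitted curve at half-maximal effect; % of control where 0% means no effect; nearly all actives have a fitted effect of over 65% in size; a mitochondrial uncoupler was the plate control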
#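 PINK1 protein, normally rapidly degraded, was detected by immunofluorescence after 24 hour compound treatment of a stable cell line. Titration data (5 concentrations) came from laser-scanning cytometry, with CCCP-treated wells as controls.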
# Menin-MLL FL inh: menin-MLL binding inhibition, fluorescein peptide; 290,000 tested, under 10 active; Fluorescence polarization, fluorescein-MLL peptide displacement from menin; FP activity change, % at 61.4 µM; inconclusive = falling polarisation curve, or a change in total fluorescence; inactive = total fluorescence flat and polarisation flat or rising; no compound was filed as active; the % refers to the polarisation; negative = inhibition;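 also: % of control where 0% means no effect; inhibitors lower the polarisation; unlabelled MLL peptide was the positive control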
# Numbers without * were called inactive; ? = inconclusive; / = no result given; [ ] = remark or other dose.
smiles,TRPV1 potentiator,TRPML1 inh,ClpP mod,TRPML1 agonist,Sfp PPTase inh,PINK1 expr mod,Menin-MLL FL inh
COc1ccc(S(=O)(=O)NCC(=O)NCc2cc(=O)n(C)c(=O)n2C)cc1C,1.7,-0.6,2.2%,-0.7,24.3%,-1.8%,-1.3
Oc1ccccc1Oc1c(F)c(F)nc(N2CCCC2)c1F,17.9,-22.9,-0.4%,0.2,-0.1%,4.6%,7.6
O=C(Nc1ccc(S(=O)(=O)N2CCCCC2c2cccnc2)cc1)c1ccc(Br)cc1 (configuration not stated),/,12.1,3.1%,0.5,/,0.3%,/
Cc1ccc2nc(Cl)c(/C=N/Nc3nc(C)cc(C)n3)c(=O)n2c1,1.8,23.8,-6.9%,-0.4,-14.4%,2.1%,?
Cc1ccc(CN(CCO)CCO)cc1,7.5,-12.7,-1.3%,-0.1,10.6%,0.9%,-0.4
CCc1n[nH]c(=S)n1/N=C/c1c(O)ccc2ccccc12,8.0,13.7,-1.6%,0.2,-13.9%,0.3%,-1.8
Cc1cccc(N2CCN(C3=NC(=O)C(=C4CCCCC4)S3)CC2)c1,-10.4,24.9,2.2%,4.8,-0.2%,/,-1.0
Cc1cc(=O)oc2cc(OCC(=O)NCCN3CCOCC3)c(Cl)cc12,9.9,3.0,/,-0.1,14.9%,2.7%,/
CCOc1ccc(S(=O)(=O)Nc2nc3ccccc3nc2Nc2ccc(N3CCOCC3)cc2)cc1,7.1,-5.9,10.0%,1.5,-5.1%,1.9%,?
CC1(C)CC(N2CCN(C(c3ccccc3)c3ccccc3)CC2)=CC(=[N+]2CCCCC2)C1,-4.8,30.8,-0.8%,0.4,-26.3%,?,5.1
CC(C)NC(=O)CSc1nc(N)c(NC(=O)c2ccco2)c(=O)[nH]1,7.9,4.4,/,0.1,-14.4%,4.4%,-1.2
Cc1ccc(CNC(=O)CCCCCn2c(=O)c3sccc3n(CC(=O)C(C)(C)C)c2=O)cc1,/,-6.9,-0.7%,3.0,/,0.7%,/
COc1cc(/C=N/Nc2snc(SC)c2C#N)cc(OC)c1OC,14.7,0.5,11.8%,-0.8,-16.7%,5.2%,?
CCCCCn1c(SCC(=O)OCC)nc2cc(C(=O)NCc3ccco3)ccc2c1=O,-6.2,5.4,0.9%,1.6,10.5%,?,-5.0
COc1ccc(C(=O)NCCc2sc(-c3cccc(F)c3)nc2C)cc1,/,6.1,4.3%,4.6,/,2.0%,/
CCN(CC)c1cc(C)c2cc(NC(=O)c3ccc(F)cc3Cl)ccc2n1,/,-3.2,-17.3%,-0.2,/,2.0%,/
Cc1ccc(-c2nc(S(=O)(=O)c3ccc(C)cc3)c(SCC(=O)NC3CCCCC3)o2)cc1,/,10.7,-1.3%,0.3,/,-0.7%,/
CSc1nnnn1-c1ccc(C(=O)OCC(=O)N2CCOCC2)cc1,-1.3,1.5,-2.3%,0.0,1.8%,-0.5%,5.1
COc1ccc(CNC(=O)[C@H](C)N2C(=O)N3CCc4c([nH]c5ccccc45)[C@@]3(C)C2=O)cc1OC,-15.7,/,1.8%,/,8.9%,8.6%,-2.9
Cc1cc(=S)c2ccccc2[nH]1,?,6.7,/,0.2,56.2µM*,3.6%,-0.8
COc1ccc(CCNC(=O)Cn2cnc3c(cnn3C(C)(C)C)c2=O)cc1OC,-27.4,8.7,-0.9%,4.7,12.5%,0.5%,40.6[activator]
CC(C)C[C@H](NS(=O)(=O)c1ccc(Br)cc1)C(=O)O,25.4,1.3,-0.9%,-0.5,-1.1%,4.2%[38.3 µM],-1.3
COc1ccc(CCNC(=O)c2cc3c(F)cccc3s2)cc1OC,-14.9,-4.8,/,1.7,?,3.0%,1.2
CCN1CCN(Cc2ccc(NC(=O)c3ccc(C)c(NC(=O)c4nccnc4N)c3)cc2C(F)(F)F)CC1,?,0.6,-4.2%,1.0,89.1µM*,-0.1%,3.5
Cc1ccccc1NC(=O)COc1ccc(Br)cc1CNCCCO,5.1,4.7,2.2%,-0.6,-0.6%,0.5%,0.3

# A few values from the list:
# CCOc1ccc(S(=O)(=O)Nc2nc3ccccc3nc2Nc2ccc(N3CCOCC3)cc2)cc1 | Sfp PPTase inh = -5.1%
# COc1ccc(CCNC(=O)c2cc3c(F)cccc3s2)cc1OC | Menin-MLL FL inh = 1.2

# (listing goes on)
smiles,TRPV1 potentiator,TRPML1 inh,ClpP mod,TRPML1 agonist,Sfp PPTase inh,PINK1 expr mod,Menin-MLL FL inh
COc1cc([N+](=O)[O-])ccc1NC(=O)Nn1cnnc1,6.8,20.6,-2.1%,0.4,-0.5%,-1.5%,0.7
Cc1ccc(C)c(Cn2c3ccccc3c3cnn(CC(=O)N4CCCCC4)c(=O)c32)c1,/,7.3,-8.3%,0.6,/,2.1%,/
Cc1cc(C)cc(C(=O)NCCN2CCOCC2)c1,29.6,6.4,0.8%,-0.3,21.5%,0.1%,1.6
CCCCNC(=O)C1CCCN(Cc2nc(-c3ccc(Cl)cc3)oc2C)C1 (configuration not stated),/,0.0,1.1%,0.9,/,1.3%,/
CCCOc1ccc(C2c3c(oc4cc(C)c(C)cc4c3=O)C(=O)N2CCCN(C)C)cc1 (configuration not stated),-1.8,13.1,-3.4%,0.1,5.1%,11.7%,1.3
CC(C)C[C@H](NC(=O)OC(C)(C)C)C(=O)N1CCC(C(=O)N[C@@H](Cc2c[nH]c3ccccc23)C(=O)O)CC1,2.1,2.2,0.6%,-0.6,5.3%,3.1%,6.3
Cc1c(C)n(Cc2ccc(Cl)cc2)c2ccc(C(=O)NCCN3CCOCC3)cc12,-11.9,-10.0,-25.2%,0.2,-18.8%,-0.9%,3.8
Cc1ccc(NC(=O)CSc2ccc3nnc(-c4cccnc4)n3n2)cc1,8.0,-7.7,-1.2%,0.1,10.5%,-1.1%,/
COc1ccc(CNc2ccccc2SC)cc1OC,8.7,2.5,0.8%,0.1,56.2µM*,2.2%[38.3 µM],-0.9
C#CCNC(=O)C[C@@H]1C[C@@]2(C(=O)OC)CCCCC=C2N(Cc2ccc(Cl)cc2Cl)C1=O,/,/,2.0%,-0.6,/,-0.3%,/
CCN(CC)/C(N)=N/c1nc(C)cc(C)n1,2.0,-3.2,/,0.0,1.3%,0.3%,-3.1
COc1cc(NC(=O)c2ccccc2-n2cnnn2)cc(OC)c1,21.3,-7.9,/,-0.6,/,9.1%,/
CC(=O)C(Cl)C(=O)Nc1ccccc1 (configuration not stated),11.8,-3.4,-0.8%,0.7,?,3.6%,-1.9
CCOC(=O)c1c(C)[nH]c(C(=O)COC(=O)CNC(=O)c2ccc(Br)cc2)c1C,-2.4,6.2,-7.0%,2.6,6.5%,-0.2%,-0.6
O=C(c1ccco1)N1CCN=C1SCc1cccnc1,-3.8,6.7,1.9%,0.8,-0.3%,-2.2%,6.0
CCC(=O)Nc1cc2c(cc1C(C)=O)OCCO2,2.1,-2.3,-6.8%,-0.7,12.0%,-0.8%,-1.3
COc1cccc(CCNC(=O)CCc2nnc(-c3cc(C)oc3C)o2)c1,100.7*,-9.0,-2.1%,2.3,?,-0.5%,0.3
CC1CN(C=O)CC(C)N1CCN1C(C)CN(C=O)CC1C (configuration not stated),/,10.4,-2.7%,0.7,/,-1.5%,/
Fc1ccc2nc(N3CCCC3)sc2c1,2.5,14.5,/,-0.2,13.2%,1.8%,-0.6
O=C(Nc1nc2ccc(Cl)cc2s1)c1ccco1,-5.8,-6.0,?,0.1,4.4%,-2.1%,4.8
CCOc1ccc(C(=O)COC(C)=O)cc1,-8.2,-5.8,3.9%,-0.6,21.6%,-1.4%,0.4
CCN1CCN(C(C(=O)NC2CCCCC2)c2cc3ccccc3o2)CC1 (configuration not stated),/,/,-0.1%,-0.5,/,0.0%,/
COC(=O)Cc1nnc(NC(=O)C(C)C)s1,9.4,11.5,0.4%,-0.3,-5.2%,/,-1.2
O=C(CN1CCOCC1)N/N=C/c1cc2ccccc2nc1Cl,3.6,2.8,-2.7%,-0.8,-0.7%,0.2%,-0.5
CCOc1c(OC)cccc1C(=O)NCC1(c2ccccc2)CCCC1,-9.8,-3.7,-1.6%,-0.1,-11.1%,5.6%,8.6
O=C(NCC1CCCO1)c1ccc(CNS(=O)(=O)c2cccc(Cl)c2)cc1 (configuration not stated),6.1,-20.0,/,-0.4,-8.2%,1.5%,-1.0
Cc1oc(-c2cccc(Cl)c2)nc1CSc1nnc(C)n2c1cc1occc12,/,14.5,?,0.2,/,-1.0%,/
COc1ccc(-c2cn(-c3ccc(C)cc3)c(=O)n2CC(=O)Nc2cccc(F)c2)cc1,2.0,9.0,0.6%,-0.3,7.8%,-1.7%,11.4
Cc1cccc(N2CCN(C(=O)C3CCCN(S(=O)(=O)c4ccc(Br)s4)C3)CC2)c1C (configuration not stated),/,71.7,-1.9%,0.0,/,1.2%,/
CC1(Cc2ccc(Cl)s2)C(=O)Nc2c(Cl)ccc(Cl)c21 (configuration not stated),/,12.9,-2.3%,0.1,/,0.0%,/
COc1cccc(-c2ncc3ccccc3c2COC(=O)c2ccc(Br)cc2)c1,5.3,-13.3,-21.4%,1.4,/,9.1%,/
Cc1cccc(NC(=S)N/N=C/c2ccc([N+](=O)[O-])s2)c1,-2.4,34.3,-0.4%,1.2,6.4%,1.8%,12.3
Fc1ccccc1CN(CCN1CCOCC1)C(=S)Nc1ccccc1Cl,-11.0,6.3,/,-0.5,3.5%,-0.2%,2.2
COc1ccc(-c2sc3ccccc3c2-c2ccc(O)cc2)cc1,/,19.6,3.9%,-0.1,/,-1.3%,/
CCc1c(C#N)c(SCCC(=O)Nc2cccc(OC)c2)nc2c1C(=O)CC(C)(C)C2,-19.1,22.5,-3.1%,-0.5,25.9%,-0.8%,-0.9
O=C(c1nc2ccc(Cl)cn2c1CN1CCC[C@H]1CO)N1CCc2ccccc2C1,/,-4.5,-7.7%,-0.2,/,-0.7%,/
COc1ccc(-c2oc3ccccc3c(=O)c2O)cc1OC,/,/,/,/,-15.3%,-1.4%,?
